Source: PubChem BioAssay
ClpP mod: qHTS Assay for Activators of ClpP | AID 651965, 2013 | 1.9% of 340,000 active | ATP-dependent Clp protease proteolytic subunit (Bacillus subtilis (strain 168)), P80244 | Potency, µM (top dose mostly 57.5 µM), for the others: top-dose activity change, negative = active | purified B. subtilis ClpP, FRET peptide cleavage, 20 min; active = well fitted falling curve with a large enough effect; inconclusive = small, poorly fitted or top-dose-only effect; inactive = no such curve, though single readings can be large or run the other way; further: potency means the concentration at half of the fitted maximal effect; the source files actives as falling curves though it sought activators and does not explain the sign; nearly all actives have a fitted effect of over 65% in size; many hits overshoot -100%
Target sequence (P80244 whole entry, looked up): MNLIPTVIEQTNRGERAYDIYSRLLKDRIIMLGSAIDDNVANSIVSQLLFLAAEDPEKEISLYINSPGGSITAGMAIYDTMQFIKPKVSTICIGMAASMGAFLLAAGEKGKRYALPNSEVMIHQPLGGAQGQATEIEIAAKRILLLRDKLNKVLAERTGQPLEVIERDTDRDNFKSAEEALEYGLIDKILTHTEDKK
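Purified B. subtilis ClpP, 10 microg/mL final in Tris/HCl pH8 with KCl, BSA, glycerol and Tween-20, cleaved an Abz/nitrotyrosine-quenched decapeptide. Fluorescence (ex 320, em 430) was read at 0 and 20 min at room temperature. Delta was normalized to 5.8 microM ADEP and DMSO/no-enzyme controls.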
gsp ag: gsp mutant agonism. gsp mutant cells, cAMP HTRF, 30 min; control for the full effect not named in the record. Potency, µM (titrated, usually from 76.9 µM), without a hit: at the highest dose activation (cAMP increase), actives largely listed as activators. 0.13% of 340,000 active; active = well fitted activation curve with a large enough effect; inconclusive = small, poorly fitted or top-dose-only effect, or another doubt; inactive = no such curve, though single readings can be large or run the other way; cell line not stated here;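 further: phosphodiesterase inhibitor Ro 20-1724 added with compounds to block cAMP breakdown; potency means the concentration at half of the fitted maximal effect; nearly all actives have a fitted effect of over 60% in size; about a fifth of the inactives were tested at one dose only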
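Cells in DMEM/10% FBS with G418 were pretreated with compounds in DMSO plus […] (300 uM stock) for 30 min at 37C. cAMP was measured by HTRF (cAMP-d2 plus anti-cAMP antibody-K) after 30 min at room temperature.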
PINK1 expr mod: modulators of PINK1 expression | 0.2% of 410,000 active | Potency, µM (doses to about 76.6 µM), for the others: top-dose activation (PINK1 increase), actives largely listed as activators | PINK1 immunofluorescence, high-content cytometry, 24 h; active = well fitted activation curve with a large enough effect; inconclusive = small, poorly fitted or top-dose-only effect; inactive = flat fitted curve, though single readings scatter; cell line not stated here;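 further: potency means the concentration at half of the fitted maximal effect; % of control where 0% means no effect; nearly all actives have a fitted effect of over 65% in size; a mitochondrial uncoupler was the plate control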
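Stable cell line treated 24 h with compounds at 5 concentrations (CCCP controls), then fixed and immunostained for PINK1 plus nuclear and cell stains; PINK1 immunofluorescence quantified by laser-scanning microplate cytometry.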
gsp antag: gsp mutant antagonism. 0.4% of 340,000 active. gsp-mutant cells, cAMP HTRF, 30 min; control for the full effect not named in the record. Potency, µM (top dose mostly 76.9 µM), for inactives: at the highest dose activity change, negative = inhibition, hits mostly inhibitors. AID 624288; active = falling curve of any shape with a large fitted effect; inconclusive = falling curve, mostly with a smaller effect; inactive = flat or rising curve; cell line not stated here;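 further: intracellular cAMP measured with PDE inhibitor Ro 20-1724 present during compound exposure; potency means the concentration at half of the fitted maximal effect; on the % scale 0 is the no-effect control and ±100 the full control effect; nearly all actives have a fitted effect of over 65% in size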
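Cells, 2000/well, grown 16–24 h in DMEM 10% FBS with 0.5 mg/ml G418, then compounds plus […] (300 uM addition stock), 30 min at 37C. cAMP read by HTRF (cAMP-d2 and anti-cAMP antibody-K in lysis buffer) after 30 min RT.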
D2 agonist: human D2 receptor agonism in beta-arrestin assay; 0.084% of 360,000 active; activation, % (concentration not given with the values); P14416; DiscoveRx PathHunter D2 beta-arrestin, luminescence, 90 min; 100% = 57 uM dopamine signal; in the data active = activation above about 40%; inconclusive = about 15% to 40%; inactive = below about 15%; further: compound concentration not given in the record; the text of the record calls up to 30% inactive
Target sequence (P14416 whole entry, looked up): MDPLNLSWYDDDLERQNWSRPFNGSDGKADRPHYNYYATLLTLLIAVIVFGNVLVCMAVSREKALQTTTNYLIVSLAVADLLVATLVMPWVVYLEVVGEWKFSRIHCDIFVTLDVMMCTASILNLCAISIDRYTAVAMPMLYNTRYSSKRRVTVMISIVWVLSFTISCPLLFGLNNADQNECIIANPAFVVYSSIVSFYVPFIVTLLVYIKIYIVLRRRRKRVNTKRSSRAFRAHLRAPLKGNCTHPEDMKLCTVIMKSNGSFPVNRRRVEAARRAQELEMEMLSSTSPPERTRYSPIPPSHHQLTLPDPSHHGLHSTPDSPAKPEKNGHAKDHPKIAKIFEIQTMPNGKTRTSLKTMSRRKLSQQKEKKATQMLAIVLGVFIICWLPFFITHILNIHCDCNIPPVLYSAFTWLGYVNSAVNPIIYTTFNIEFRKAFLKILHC
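DiscoveRx PathHunter D2 beta-arrestin cells (2,100/well) attached overnight, then compound-stimulated 90 min at 37 C in HBSS/10 mM HEPES/0.1% Tween-20 buffer; beta-galactosidase complementation read by luminescence after 1 h at ambient temperature. Dopamine 57 uM final (EC100) as control.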
Sfp inh: inhibitors of Bacillus subtilis Sfp phosphopantetheinyl transferase; AID 1490; Q9F4F7; Biochemical Sfp PPTase activity, qHTS; Potency, µM, for the others: max response, negative = inhibition, hits mostly inhibitors; 3.5% of 310,000 active; active means well fitted inhibition curve with a large enough effect; inconclusive means small, poorly fitted or top-dose-only effect, or another doubt; inactive means no such curve, though single readings can be large or run the other way;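 further: the enzyme is Sfp with the accession as filed and its product quenches rhodamine fluorescence; potency means the concentration at half of the fitted maximal effect; 0% = enzyme reaction without inhibitor and -100% = no enzyme wells; top concentration of the series not given in the record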
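With Hepes-Na pH 7.6 buffer containing 10 mM MgCl2, Sfp (15 nM) modified BHQ-2-YbbR (12.5 uM) using rhodamine-CoA (5 uM). Two reads 30 minutes apart at 525/598 nm yielded each well's rate.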
Menin MLL FP FL: displaces fluorescein MLL peptide from human menin; Fluorescence polarization, fluorescein-MLL peptide displacement from menin; FP activity change, % at 61.4 µM; 290,000 tested, under 10 active; inconclusive = falling polarisation curve, or a change in total fluorescence; inactive = total fluorescence flat and polarisation flat or rising; no compound was filed as active; the % refers to the polarisation; negative = inhibition;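 further: % of control where 0% means no effect; inhibitors lower the polarisation; unlabelled MLL peptide was the positive control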
Active calls of the source: *; u = inconclusive; x = not tested or not shown; & = joins results of further samples; [ ] = another dose, or the depositor's remark.

nr | structure | ClpP mod | D2 agonist | gsp ag | gsp antag | Sfp inh | PINK1 expr mod | Menin MLL FP FL
1 | CCC(=O)c1cc(F)c(N2CCN(S(=O)(=O)c3ccccc3)CC2)cc1C | 1.0% | 1.5 | 25% | -5% | -3% | x | 7.0
2 | COc1ccc(OC)c(NC(=O)C2(C)CCN2CCOc2ccccc2)c1 (configuration not stated) | -3.4% | -2.0 | x | x | x | 2.0% | x
3 | CCOC(=O)C1CCCN(C(=O)CSc2ccc(NC(C)=O)cc2)C1 (configuration not stated) | x | u | -5%[15.4 µM] | 4% | 6% | 1.6% | 2.4
4 | CSCCC(NC(N)=O)C(=O)NCC1CCCCC1 (configuration not stated) | -3.4% | -1.2 | -36%[inhibitor] | 10% | 13% | -1.5% | 1.2
5 | C#CC(CO)N(CCN(Cc1ccccc1)C(C#C)CO)Cc1ccccc1 (configuration not stated) | 1.0% | 6.2 | -26% | -33% | -4% | -0.8% | 2.7
6 | COc1cc(/C=C/C(=O)OCC(=O)N2CCN(S(=O)(=O)c3ccc(C)cc3C)CC2)ccc1OC(F)F | u | 5.8 | 9% | -11% | x | 1.5% | x
7 | O=C(Nc1cc(Cl)ccc1-n1cncn1)c1cccc(S(=O)(=O)N2CCOCC2)c1 | -1.8% | -1.8 | 3% | 5% | x | -0.1% | x
8 | COCC(C)n1c(SCc2ccc(C(=O)OC)o2)nc2ccccc2c1=O (configuration not stated) | 0.5% | 2.9 | 4% | 3% | u | 2.0%[38.3 µM] | -2.4
9 | CCOC(=O)C1(Cc2ccc(OC)cc2)CCN(C(=O)Cn2cnnn2)CC1 | x | -2.1 | -13%[15.4 µM] | -19% | 11% | 3.9% | -1.0
10 | Nc1nc(Cl)cc(N2CCOCC2)n1 | -2.8% | 2.2 | -10% | 6% | 15% | -2.2% | 3.6
11 | CCN1C(=O)[C@@H]2[C@@H](c3ccc(SC4CCCCC4)c(OC)c3)N3CCC[C@@]3(C(=O)OC)[C@@H]2C1=O | -4.9% | -3.4 | -1% | -13% | x | 0.0% | x
12 | CON(c1nc(Cl)nc(N(C)C)n1)S(=O)(=O)c1ccc(C)cc1 | x | -2.2 | 6% | -18% | 0% | 8.9% | 4.2
13 | C/C(=N\NC(=S)NCc1ccccc1)c1ccc(C#N)cc1 | 0.2% | 5.4 | -46%[inhibitor] | 14% | 19% | 1.1% | -3.8
14 | COc1ccc([N+](=O)[O-])cc1NC(=O)Cc1ccc(C)cc1 | -5.6% | -1.8 | 2% | 6% | -12% | 2.8% | 6.0
15 | Cc1cccc(CC(=O)NC2CCCCCC2)c1 | -0.6% | 4.9 | -1% | 5% | 9% | 1.8% | 2.1
16 | Cc1cccc(C(=O)OCC(=O)NCC2COc3ccccc3O2)c1 (configuration not stated) | -1.3% | 1.6 | -5% | -12% | x | 0.2% | x
17 | COc1ccc(N2C(=O)CC(NNC(=O)c3ccc(Br)s3)C2=O)cc1 (configuration not stated) | x | -2.3 | -8%[15.4 µM] | 0% | 19% | 1.9% | -0.7
18 | Cc1ccc(-c2ccc([C@H]3[C@H]4C=CC[C@@H](C)[C@@H]4C(=O)N3Cc3ccccc3)c(F)c2)cc1 | u | -5.9 | x | 4% | -18% | 23% | -0.8
19 | CCCCC(=O)NC(c1ccc(OC)cc1)c1ccc2cccnc2c1O (configuration not stated) | 1.3% | 4.0 | -67%[inhibitor] | x | x | -0.4% | x
20 | CCOC(=O)/C(C(N)=NC(C)C)=C(\O)c1ccccc1 | 0.7% | -0.3 | 17% | 6% | 11% | 6.3%[38.3 µM] | 4.2
21 | CC1CCCCN1CCCNc1c(C=O)c(=O)[nH]c2ccccc12 (configuration not stated) | 0.1% | -0.3 | -1%[15.4 µM] | 3% | 15% | 3.1% | -12
22 | Cc1ccc(C(=O)NCC(=O)OC(C)C(=O)Nc2ccc(N(C)C)cc2)cc1C (configuration not stated) | x | -0.4 | 3%[15.4 µM] | -24% | 7% | 0.1% | -1.1
23 | Cc1ccccc1-c1nc(CN2CCC(C(=O)NCCN3CCOCC3)CC2)c(C)o1 | 3.5% | -2.6 | u | 14% | 6% | 2.1% | -1.7
24 | Cc1cc(C)cc(N(C(=O)CNC(=O)c2ccco2)C(C(=O)NC2CCCC2)c2cccnc2)c1 (configuration not stated) | 2.7% | -1.8 | -15% | -3% | -1% | -0.5% | -0.1
25 | CCN(c1ccc(F)cc1)S(=O)(=O)c1ccc2[nH]cc(C(=O)NCCCN3CCOCC3)c(=O)c2c1 | -29% | 6.3 | -1% | -3% | 14% | 0.6% | -2.7
26 | CC[n+]1c(C)sc2cc(C)ccc21 | -1.5% | -5.2 | u | 9% | u | 0.2% | -0.1
27 | Cn1c(N)c(C(=O)COC(=O)COc2ccc(Cl)cc2Cl)c(=O)n(C)c1=O | -0.1% | -1.7 | 16%[15.4 µM] | 2% | x | 2.6% | x
28 | CC(C)(C)c1cc(NS(=O)(=O)c2ccc(Br)s2)no1 | 0.9% | -0.4 | -30% | -7% | 11% | 0.5% | 3.0
29 | O=C1Nc2c(c(=O)[nH]c(=O)n2-c2ccccc2F)C(C(F)(F)F)(C(F)(F)F)N1 | -3.9% | 1.7 | -25% | 5% | 18% | -3.6% | 7.5
30 | Cc1cccc(OCC(=O)OCC(=O)NCC2CCCO2)c1C (configuration not stated) | 0.3% | 0.5 | u | 3% | x | -0.1% | x
31 | CC[C@]1(C(=O)OC)[C@H]2C(=O)N(C)C(=O)[C@H]2[C@H]2CN(C)C(=NC)N21 | -1.3% | -0.3 | x | 11% | x | 4.2% | x
32 | O=c1cnc2cnc(Oc3cccc(Cl)c3)nc2n1Cc1ccc(F)cc1 | x | x | x | x | -5% | 4.3% | 0.4
33 | COc1cc2c(cc1OC)CN(C(=O)CC1CC3CCC1C3)CC2 (configuration not stated) | u | 1.6 | 12% | -16% | 10% | 0.6% | 2.2
34 | OCc1ccccc1Cn1ccnc1 | 3.2% | -3.4 | -13% | x | x | 3.8% | x
35 | Cn1c(N)c(NC(=S)NC2CCCCC2)c(=O)n(C)c1=O | x | -2.2 | 20% | 12% | x | 3.7% | x
36 | Cc1ccc(N2CCN(C(=O)CN3C(=O)c4ccccc4C3=O)CC2)cc1 | -1.3% | -0.3 | -31%[inhibitor] | -3% | 20% | -1.3% | 2.5
37 | Cc1onc(-c2ccccc2)c1C(=O)Nc1sccc1C#N | x | -4.2 | -19% | -5% | 4% | -0.9% | u
38 | CC(C)(C)CN1C(N)=NC[C@H]1Cc1ccc(O)cc1 | -1.3% | 1.3 | x | 10% | 14% | 3.1% | 2.1
39 | Cc1nc(Nc2ncc3c(n2)CC(C)(C)CC3=O)nc2ccccc12 | -2.6% | -0.2 | 2% | 10% | x | -0.4% | x
40 | COc1ccc(C)cc1Nc1n[n+](-c2ccccc2)c(-c2cc([N+](=O)[O-])cc(OC)c2O)s1 | 0.4% | -5.8 | u | u | 22µM* | 8.0% | u
41 | O=C(COC(=O)Cc1cccc(F)c1)NCCc1ccccc1 | 1.6% | 1.0 | -5% | 17% | x | 0.6% | x
42 | CNC(=O)c1[nH]cnc1C(=O)N[C@@H](CC(C)C)C(=O)OCc1ccccc1 | 1.9% | -1.0 | u | -12% | 10% | 12% | -0.2
43 | O=C(CCn1c(=S)oc2ccccc21)N1CCCCC1 | x | -2.3 | 2%[15.4 µM] | -1% | 22% | 0.1% | -4.3
44 | COC(=O)N1CCN(c2ccc(C(C)=O)cc2)CC1 | -11% | -0.5 | u | 2% | 13% | -0.5%[38.3 µM] | 0.7
45 | COc1ccc(N2CCN(C(=O)C3CCN(S(=O)(=O)c4cccs4)CC3)CC2)cc1 | -0.5% | -0.8 | -2%[15.4 µM] | -16% | 19% | 0.4%&1.4% | 3.4
46 | O=C(Nc1cccc2c1CCCC2)C1CCCN(S(=O)(=O)c2cccc3nonc23)C1 (configuration not stated) | -11% | -3.1 | -14% | -2% | 1% | u | 2.1
47 | NS(=O)(=O)c1ccc(CCNC(=O)Cc2ccc(Cl)cc2)cc1 | -0.1% | 2.8 | 8%[15.4 µM] | 3% | -1% | -1.2% | -2.8
48 | O=C(CCn1nnc2ccccc21)Nc1nnc(COc2ccc(F)cc2)s1 | 0.1% | -2.0 | -25% | 0% | 4% | 1.2% | 0.0
49 | CC(C)C[C@H](NC(=O)N1CC(=O)Nc2ccccc21)C(=O)N1CCC[C@H]1C(=O)O | -2.3% | -5.6 | x | -7% | 6% | 1.0% | -12
50 | COc1ccc(-n2nnnc2SCC(=O)Nc2ccc3c(c2)OCCO3)cc1OC | 1.9% | -5.0 | -34%[inhibitor] | u | u | 3.0% | -2.9

The list goes on.
nr | structure | ClpP mod | D2 agonist | gsp ag | gsp antag | Sfp inh | PINK1 expr mod | Menin MLL FP FL
51 | CCNC(=S)N1C2CCC1CC(NC(=O)Nc1ccc(C(=O)OCC)cc1)C2 (configuration not stated) | -0.4% | -2.4 | -5% | -2% | 27% | -0.4% | 0.0
52 | Clc1cccc2c3c([nH]c12)CCNC3 | -1.2% | 1.7 | -4%[15.4 µM] | 11% | 18% | -0.3% | 9.1
53 | COc1ccc(N(C(=O)c2ccco2)C(C(=O)NC2CCCC2)c2ccc(N(C)C)cc2)cc1 (configuration not stated) | -0.4% | -4.9 | -33%[inhibitor] | -20% | -7% | 1.6% | 2.4
54 | O=C(COC(=O)Cc1ccc(Cl)cc1)Nc1ccccc1-c1ccccc1 | 1.8% | 0.6 | -29% | 3% | u | -0.4% | 1.7
55 | COc1ccc(NC(=O)C2CCCN(S(=O)(=O)c3cccnc3)C2)cc1OC (configuration not stated) | 1.8% | -0.9 | 22% | 2% | 3% | 0.1% | 2.8
56 | COc1ccc(N2C(=O)C(Cl)=C(N3CCCC(C)C3)C2=O)cc1 (configuration not stated) | 1.1% | -3.9 | 6% | -20% | -6% | -1.1% | 4.1

Outcome played no part in choosing rows (roughly 5.1% active in at least one column).
